AmpC nodet inh: blocks E. coli AmpC beta-lactamase in absence of detergent | P00811 | AmpC nitrocefin hydrolysis, absorbance 480 nm, no detergent; potencies from a single point are estimates | Potency, µM (top dose mostly 28.7 µM), for inactives: at the top dose activity change, negative = inhibition | hit rate 1.8% among 71,000 | AID 585; active = falling curve, for most hits resting on a single point; inconclusive = weak or doubtful change; inactive = flat or rising curve; also: % of control where 0% means no effect; about half of the hits show no inhibition at the top dose; a quarter of the inactives give rising signals
Target sequence (P00811 whole entry, looked up): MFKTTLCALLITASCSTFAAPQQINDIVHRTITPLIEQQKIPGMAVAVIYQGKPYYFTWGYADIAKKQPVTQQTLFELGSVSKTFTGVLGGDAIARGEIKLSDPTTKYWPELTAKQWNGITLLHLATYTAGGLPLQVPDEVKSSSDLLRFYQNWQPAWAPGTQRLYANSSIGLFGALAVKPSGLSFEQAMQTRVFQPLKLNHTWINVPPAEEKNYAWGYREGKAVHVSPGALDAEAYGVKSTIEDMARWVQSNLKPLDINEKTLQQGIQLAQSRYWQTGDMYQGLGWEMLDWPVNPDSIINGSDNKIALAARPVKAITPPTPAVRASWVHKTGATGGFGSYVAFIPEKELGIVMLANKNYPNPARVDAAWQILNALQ
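AmpC in 20 mM phosphate buffer pH 7.0 was preincubated 15 min at room temperature with compounds. Nitrocefin (800 uM stock) was then added and hydrolysis followed at 480 nm every 20 s for 4 min.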
* marks the source's active call; other numbers are inactive results; [ ] = dose if it differs, or a comment. Potency is read from the fitted curve at half-maximal effect. Not all compounds are listed; the hit share may differ from the screen's.

| SMILES | AmpC nodet inh |
| --- | --- |
| COc1ccc(S(=O)(=O)Cc2ccc(C(=O)NC3CC3)o2)cc1 | -0.5% |
| Cc1cc(C(F)(F)F)c2c(C)nn(CCc3nn[nH]n3)c2n1 | -2.6% |
| C=CCn1c(-c2cc(OC)cc(OC)c2)n[nH]c1=S | 2.2% |
| CC(CC(C)C(=O)N1CCOCCN(C(=O)C(C)CC(C)C(=O)O)CCOCC1)C(=O)O (centres undefined) | -5.2% |
| CC(C)(C)c1cc(C(=O)NCc2ccco2)ccn1 | 3.6% |
| CS(=O)(=O)N(CCC(=O)O)Cc1ccccc1 | -6.5% |
| O=C1CC(N2CCC(O)(c3ccc(Cl)cc3)CC2)C(=O)N1Cc1ccc(N2CCCC2=O)cc1 (centres undefined) | 82.3% |
| Cc1sc(-n2cccc2)c(C(=O)O)c1C | -9.1% |
| O=C(CCn1nnc2ccccc21)Nc1nnc(-c2ccccc2F)s1 | -8.7% |
| CC1CCCCN1C(=O)Cn1c(=O)n(C2CCCCC2)c(=O)c2ccccc21 (centres undefined) | 60.1% |
| O=C(Cc1ccc2c(c1)OCCO2)c1c(O)cc(O)cc1O | 10µM* |
| CC1(C)CC(=O)C(C=NCCN2CCN(CCCCS(=O)(=O)O)CC2)=C(O)C1 | 11.4% |
| COc1c(C)cc(Br)cc1C(=O)Nc1cccc(-c2nc3ncccc3o2)c1 | 70.9% |
| Cc1cc(C)nc(N2CCC(C(=O)NCc3ccco3)CC2)n1 | 13.2% |
| Cc1cc(NC(=O)c2cc(C(C)C)on2)no1 | -2.3% |
| COc1ccc(NC(=O)CCCn2c(=O)[nH]c3ccccc3c2=O)cc1 | -13.3% |
| CN(CCc1ccccn1)C(=O)c1nn2c(C(F)(F)F)cc(-c3ccco3)nc2c1Cl | 76.9% |
| CCCCN1C(=O)C2C(C(=O)Nc3cccc(OC)c3)C3C=CC2(O3)C1C(=O)NC1CCCCC1C (centres undefined) | 24.3% |
| CCOCCCNCc1ccc(OC)c(OC)c1 | -2.7% |
| O=C(CCNS(=O)(=O)c1ccc(Br)s1)N1CCN(c2ccccc2)CC1 | 23.9% |
| OCc1ccccc1 | -0.6% |
| C=Cc1c(C)c2cc3[nH]c(cc4nc(cc5nc(cc1[nH]2)C(C)=C5CCC(=O)O)C(CCC(=O)O)=C4C)c(C)c3C=C | 36.2% |
| COC(=O)Nc1c(-c2ccccc2)nc2ccc(C)cn12 | -9.8% |
| CCCCn1c(CCC(=O)O)ccc1-c1cccs1 | -13.7% |
| O=C(C1CC1)N1CCc2cc(Br)cc(S(=O)(=O)NC3CCCCC3)c21 | 14.6% |
| Cc1occc1C(=O)n1cnc2ccccc21 | 14.0% |
| O=S1(=O)CCN2C(c3ccco3)=CSC2=N1 | -3.0% |
| Cc1oc(-c2cccc(Cl)c2)nc1CN1CCCC(C(=O)NC(C)c2ccc3c(c2)OCCO3)C1 (centres undefined) | 154.7% |
| O=C(C1CCN(c2nnc(-n3cccc3)s2)CC1)N1CCN(Cc2ccc3c(c2)OCO3)CC1 | 154.5% |
| Cc1cc(N(CN2CCCC2=O)C(=O)c2ccc(F)cc2)no1 | -4.5% |
| C1CCN(c2nc3nonc3nc2N2CCCCC2)CC1 | 0.7% |
| CCOC(=O)NC(=O)COC(=O)Cc1cc(OC)c(OC)c(OC)c1 | 18.9% |
| COc1ccc(-n2c(C)nc3cc(C(=O)N4CCC5(CC4)OCCO5)ccc32)cc1 | 89.9% |
| Cc1c(-c2ccco2)[n+](=O)c2c(n1[O-])CCCCC2 | 0.6% |
| O=C(Oc1ccccc1)N1CCC2(CC1)CN(C(c1ccccc1)c1ccccc1)C2 | 31.3% |
| O=C1Nc2c(c(=O)[nH]c(=O)n2-c2ccccc2)C1(Nc1ncccn1)C(F)(F)F (centres undefined) | -5.9% |

Ordered by number of heavy atoms (smallest number first): part of the list above.
| SMILES | AmpC nodet inh |
| --- | --- |
| Cc1c(-c2ccco2)[n+](=O)c2c(n1[O-])CCCCC2 | 0.6% |
| CCOC(=O)NC(=O)COC(=O)Cc1cc(OC)c(OC)c(OC)c1 | 18.9% |
| O=C(Oc1ccccc1)N1CCC2(CC1)CN(C(c1ccccc1)c1ccccc1)C2 | 31.3% |

The list continues:
| SMILES | AmpC nodet inh |
| --- | --- |
| CCOC(=O)N1CCC(NC(=O)CSc2cc(=O)n(C)c3ccc(Cl)cc23)CC1 | 33.8% |
| Cc1cc(N2CCN(C(=O)c3ccco3)CC2)nc(-c2ccccc2)n1 | 75.5% |
| Cc1cc(S(=O)(=O)NCc2cccnc2)ccc1-n1cnnn1 | -10.8% |
| C=CCOC(=O)C1C(=O)CC(C)(O)C(C(=O)OCC=C)C1c1ccc(OC)cc1 (centres undefined) | 43.8% |
| O=C(c1ccncc1)N1C2C=CC(C2)C1(C(F)(F)F)C(F)(F)F (centres undefined) | 20.1% |
| CCCCS(=O)(=O)Nc1ccc(C(=O)NCC2CCCO2)cc1 (centres undefined) | -7.0% |
| COc1ccccc1C1C(C(N)=O)=C(C)Nc2nc(-c3ccc(Cl)cc3)nn21 (centres undefined) | 18.8% |
| COc1ccc(C(=O)N2CCC3(CC2)CN(CC(C)C)C3)cc1 | 70.3% |
| CCCNC(=O)NS(=O)(=O)c1ccc(Cl)cc1 | -1.6% |
| CCCn1c(SCC(=O)Nc2ccc3c(c2)OCO3)nc2c1c(=O)n(C)c(=O)n2C | 13.4% |
| COc1cccc(-c2nnn(CC(=O)NC3CCCC3)n2)c1OC | 0.4% |
| O=C(Cc1cn2ccsc2n1)Nc1nc2c(s1)CN(Cc1ccccc1)CC2 | 31.6% |
| CC(C)[C@@H](CC(=O)N[C@@H]1CCCC[C@H]1C(=O)N[C@H](CC(=O)N[C@@H](CCC(=O)O)CC(=O)O)Cc1ccccc1)NC(=O)C[C@H](CO)NC(=O)[C@@H]1CNCC[C@H]1N | 21.4% |
| C=CCSC1=C(C#N)C(c2cccc(OC)c2)CC(=O)N1 (centres undefined) | 3.7% |
| C=CCn1c(O)c(C(CC)=NCc2cc(OC)cc(OC)c2)c(=O)[nH]c1=O | 53.1% |
| CCN(CC)CCCC(C)n1c(-c2ccccc2)nc2c(NCCO)nc(C)nc21 (centres undefined) | 15.1% |
| COc1ccc(OC)c(Nc2cc(C)nc3nc(C)nn23)c1 | 6.2% |
| CCCOc1ccccc1NC(=O)CC1Nc2ccccc2NC1=O (centres undefined) | -6.7% |
| CN1CCCC2(CCN(C(=O)c3cnccn3)CC2)C1 | 8.6% |
| CCC(=O)N1CCCc2cc(S(=O)(=O)N3CCCc4ccccc43)ccc21 | 78.9% |
| CCOc1ccc(N(CC(=O)NC2CCCCC2)S(=O)(=O)c2c(C)noc2C)cc1 | 13.6% |
| CCCc1nnc(NC(=O)CNc2ccc(F)cc2)s1 | -2.4% |
| O=C(Nc1ccc(S(=O)(=O)N2CCOCC2)cc1)c1ccc(Br)o1 | -12.5% |
| COc1ccc(OC)c(-n2c(O)c(C=NCc3ccc4c(c3)OCO4)c(=O)[nH]c2=O)c1 | 19.1% |
| Cc1cc(NC(=O)CCCC(=O)N(CC(=O)NCCc2ccccc2)Cc2ccc(F)cc2)no1 | 62.0% |
| C[C@]12CC[C@H]3c4ccc(O)cc4CC[C@@H]3[C@H]1CC[C@@H]2OP(=O)(O)O | -1.9%[5.75 µM] |
| c1ccc(-c2noc(-c3ccc4c(c3)OCO4)n2)nc1 | 3.6% |
| CC(C)C(NC(=O)C1CCCCC1)C(=O)Nc1ccncc1 (centres undefined) | 12.0% |
| CC(NC(=O)CSc1nc2ccccc2c(=O)n1CCCO)c1ccccc1 (centres undefined) | 41.3% |
| COc1ccc(CNc2nc(-c3c(C)noc3C)nc3ccccc23)c(OC)c1 | 13.7% |
| COc1ccc(CC(=O)N(Cc2cc3cc(OC)ccc3[nH]c2=O)C(C)C)cc1 | 31.5% |
| O=C(Nc1ccccc1)c1cnc[nH]1 | -6.6% |
| CCc1ccccc1NC(=O)c1cc(C2CC2)on1 | -4.5% |
| COc1cc(-c2nc(-c3ccc(-c4ccccc4)nc3OC)no2)cc(OC)c1OC | 30.6% |
| CCc1cc2c(=O)c(-c3nc4ccccc4n3C)c(C)oc2c(CN2CCOCC2)c1O | 56.0% |
| CCc1c2c(nc3ccc(OC)cc13)COC2 | 30.9% |
| O=C(CCCN1C(=O)C2C3C=CC(C3)C2C1=O)N1CCN(c2ccccc2)CC1 (centres undefined) | 51.5% |
| COc1cc(C(=O)Nc2ccc3c(c2)OCCO3)ccc1OC(C)C | 20.1% |
| NCCCCCc1nnc(SCC(=O)c2ccc(Cl)cc2)o1 | -18.7% |
| O=C(NS(=O)(=O)c1ccccc1)c1ccccc1O | -2.2% |
| CSc1ncccc1C(=O)OCC(=O)N(CC(C)C)C1CCS(=O)(=O)C1 (centres undefined) | 20.7% |
| CCCCNC(=O)Nc1c(C(=O)OCC)[nH]c2ccccc12 | -4.4% |
| O=C1CC2CS(=O)(=O)CC2N1c1ccc(Cl)cc1Cl (centres undefined) | -6.8% |
| COC(=O)C1C(=O)c2c(n[nH]c2C)CC1(C)C (centres undefined) | 3.4% |
| Cn1c(=O)c2ncn(CC(=O)Nc3ccc4oc(-c5cccc6ccccc56)nc4c3)c2n(C)c1=O | 40.2% |
| Cc1ccc(CN(c2ccc(C(=O)N3CCCC3)cc2)S(C)(=O)=O)cc1 | 113.7% |
| CC1(C)CC(=O)C2=C(C1)OC1=C(C(=O)CC(C)(C)C1)C2c1ccc(O)cc1O | -16.2% |
| COc1ccc(NC(=O)CSc2nnc(-c3ccoc3C)n2CCc2ccccc2)cc1 | 27.0% |

Later entries:
mol	AmpC nodet inh
CCOC(=O)N1CCC(NC(=O)C2CCCN(Cc3nc(-c4cccc(Cl)c4)oc3C)C2)CC1 (centres undefined)	89.9%
O=C1NC(=O)C2(Cc3ccccc3N3CCCC32)C(=O)N1Cc1ccccc1 (centres undefined)	23.8%
Cc1cc(NC(=O)Nc2cccc3ccccc23)no1	-14.1%
CCN(CC)c1ccc(NC(=O)CN2CCN(CC(=O)Nc3ccccc3F)CC2)cc1	121.1%
O=C(Nc1ccc2c(c1)OCO2)c1ccncc1	-4.9%
CC(C)(C)NC(=O)C1CCCN(S(=O)(=O)c2cccc3cccnc23)C1 (centres undefined)	3.98µM*[single pt active]
Cn1c(=O)c2c(ncn2C[C@@H](O)CO)n(C)c1=O	-3.7%[12.8 µM]
COc1cccc(-n2ccnc2SCC(=O)N2CCc3ccccc32)c1	35.3%
O=C(Oc1ccc(-c2nnco2)cc1)N1CCCCC1	0.2%
COc1ccccc1-c1nc(NCCN2CCOCC2)c2ccccc2n1	16.9%
CCOC(=O)Cc1csc(NC(=O)C2C3C=CC(C3)C2C(=O)O)n1 (centres undefined)	-7.6%
CCOc1ccc(-c2nc(CSCC(=O)NCc3ccco3)c(C)o2)cc1	61.5%
CCOCCCNC(=O)CCCOc1ccccc1	1.9%
Cc1ccc(C2CC(C(F)(F)F)n3nc(C(=O)NCCN4CCOCC4)cc3N2)cc1 (centres undefined)	123.3%
O=C(CSCCc1ccccn1)Nc1cccnc1	-5.9%
Cc1cc(Cc2c(C)c(C)c(Cc3cc(C)cc(C(C)(C)C)c3O)c(C)c2C)c(O)c(C(C)(C)C)c1	-6.9%[5.75 µM]
CC1(C)Oc2ccc(C(=O)NC3CCCC3)cc2N(CC(=O)N2CCOCC2)C1=O	2.2%
Cn1c(=O)c(-c2cccc(F)c2)nc2cncnc21	1.8%
C[N+]12CCC(CC1)[C@@H](OC(=O)C(O)(c1ccccc1)c1ccccc1)C2	-4.9%[12.8 µM]
CCC1CCCCN1C(=O)CSc1nnc(-c2c[nH]c3ccccc23)o1 (centres undefined)	41.4%
O=C(Nc1ccccc1N1CCCC1)c1ccc2c(c1)OCO2	4.7%
CCOC(=O)C1=C(SCC(=O)Nc2ccccc2)NC(=O)C(C#N)C12CCCCC2 (centres undefined)	-6.7%
CCOc1cc(C)c(Cl)cc1S(=O)(=O)NCc1ccco1	13.0%
O=C(OCC(=O)N1CCN(C(=O)c2ccco2)CC1)c1ccc(S(=O)(=O)N2CCCCC2)cc1	80.5%
Cn1c(SCc2cccc(C(F)(F)F)c2)nnc1-c1ccco1	12.4%
NCCCP(=O)(O)CCc1ccccc1	-1.4%
O=C(Nc1ccc(Cl)c(Cl)c1)N(Cc1cccnc1)Cc1ccco1	5.9%
COc1ccc(NC(=O)C2CCCN(S(=O)(=O)c3cccc4cccnc34)C2)c(OC)c1 (centres undefined)	70.4%
CC1CCCN(CCC(=O)c2ccc(Br)cc2)C1 (centres undefined)	-18.1%
COc1ccc(C(c2nnnn2Cc2ccc(F)cc2)N2CCN(c3ccc(OC)cc3)CC2)cc1 (centres undefined)	47.9%
CC(C)C1=C[C@@]23CC[C@@H]4[C@](C)(CCC[C@@]4(C)C(=O)O)[C@@H]2C[C@@H]1[C@@H](C(=O)O)[C@@H]3C(=O)O	1.7%[5.75 µM]
COc1ccc2cc(CCNC(=O)C3CC3)c(=O)[nH]c2c1	-0.8%
COc1ccc(CNC(=O)[C@H](C)[C@H]2C[C@]2(C)[C@H](NC(=O)OCc2ccccc2)c2ccccc2)cc1OC	100.4%
Cc1cc(N(CN2CCCC2=O)C(=O)c2ccccc2)no1	-1.3%
COc1ccccc1NC(=O)CCNC(=O)Cn1ccc2ccccc2c1=O	-2.5%
O=c1cc(CSc2ccccn2)c2ccccc2[nH]1	8.3%
COc1ccc2c(c1)c(=O)oc1c(C)c3occ(C)c3cc12	5.9%
CC(C)(C)n1nnnc1C(c1cc2cc3c(cc2[nH]c1=O)OCCO3)N1CCSCC1 (centres undefined)	30.7%

In the list so far, 4 have a tert-butyl group:
mol	AmpC nodet inh
CC(C)(C)c1cc(C(=O)NCc2ccco2)ccn1	3.6%
CC(C)(C)NC(=O)C1CCCN(S(=O)(=O)c2cccc3cccnc23)C1 (centres undefined)	3.98µM*[single pt active]
Cc1cc(Cc2c(C)c(C)c(Cc3cc(C)cc(C(C)(C)C)c3O)c(C)c2C)c(O)c(C(C)(C)C)c1	-6.9%[5.75 µM]
CC(C)(C)n1nnnc1C(c1cc2cc3c(cc2[nH]c1=O)OCCO3)N1CCSCC1 (centres undefined)	30.7%
